Compound activity (PubChem BioAssay)
BmaI1 enzyme – BmaI1 acyl-homoserine lactone synthase inhibition – biochemical, fluorescence intensity, with counterscreen (AID 720554). BmaI1 enzyme assay, fluorescence intensity; stronger effect = higher value; test concentration not given here; a few actives read low; strong numbers were not always called active. inhibition, %. 0.4% of 12,000 active;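 active = both replicates within 2 robust z-scores of the inhibited control and a quiet counterscreen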;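 note: 0% = uninhibited enzyme and 100% = inhibited control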
BmaI1 enzyme counterscreen – further read-out of BmaI1 enzyme, marked with its call; inhibition, %; measured here: counterscreen; design of the counterscreen not given here;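 first of two replicates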
The depositor's hits bear a star. This is a subset. The share of hits here may be higher or lower than overall.

SMILES | BmaI1 enzyme | BmaI1 enzyme counterscreen
Cc1cc(C(=O)CN2C(=O)NC(Cc3c[nH]c4ccccc34)C2=O)c(C)n1C (configuration not stated) | 5.5 | 1.0
O=CN1CCN(C(=S)Nc2ccc(Cl)cc2Cl)CC1 | -3.0 | 9.0
O=C(OCc1cc(=O)n2ccsc2n1)c1cc(-c2cccs2)nn1-c1ccccc1 | 21.0 | 3.5
Cc1nnc(SC(C)C(=O)C23CC4CC(CC(C4)C2)C3)n1C (configuration not stated) | 18.0 | 4.0
CC(OC(=O)C1COc2ccccc2O1)C(=O)N1CCc2ccccc21 (configuration not stated) | 9.5 | 17.5
Cc1cc2nc(N3CCN(c4ccccc4)CC3)c3ccccc3n2n1 | 3.0 | 2.5
CCCSc1nsc(NC(=O)CN2C(=O)COc3ccccc32)n1 | 13.5 | -6.5
Cc1occc1-c1nnc(SCC(=O)N(CCc2ccccc2)Cc2ccccc2)n1N | 13.0 | 6.0
CCCCn1c(N)c(N2CCOCC2)c(=O)n(CC(=O)N2C(C)CCCC2C)c1=O (configuration not stated) | 43.0 | 0.5
Cc1nn(C2CCS(=O)(=O)C2)c2ncc(C(=O)c3cc(F)ccc3O)cc12 (configuration not stated) | 16.5 | 14.0
Cc1cc(Nc2ccc3ccccc3n2)n(-c2ccccc2)n1 | 25.0 | 3.5
C#CCN=Cc1ccc(OCCC)cc1O | -2.0 | -20.5
N#Cc1ccccc1NC(=O)COC(=O)C1CCCCC1 | 10.5 | 8.5
CCN(CC)S(=O)(=O)c1ccc(NC(=O)CSc2nc3ccccc3o2)cc1 | 4.5 | 0.5
CC1CCN(S(=O)(=O)c2ccc(C(=O)Oc3ccc4c(c3)OCO4)cc2)CC1 | -5.0 | -5.5
CS(=O)(=O)c1ccc(-c2csc(-n3nccc3C(F)(F)F)n2)cc1 | 20.5 | 16.5
COc1ccc(CCNC(C)C(=O)NC2(C#N)CCCCC2)cc1OC (configuration not stated) | -2.5 | -4.0
COc1ccc(CC(=O)Nc2ccc(N3CCOCC3)cc2)cc1S(=O)(=O)N1CCOCC1 | 27.5 | -3.0
O=C(COC(=O)c1ccc(S(=O)(=O)Nc2ccccc2)cc1)Nc1nnc(-c2ccccc2)o1 | 39.0 | -5.5
CN(CC(=O)Nc1cc(C(F)(F)F)ccc1N1CCOCC1)S(=O)(=O)c1ccc(Cl)cc1 | 15.5 | 10.0
COc1ccc(C2CC(c3ccccc3)=NN2C(=O)CSc2nnc(-c3cccnc3)n2N)cc1 (configuration not stated) | 7.0 | 2.5
O=C(Cn1cnc2ccccc2c1=O)N1CCCc2ccccc21 | 11.5 | 4.5
O=c1c2ccccc2nnn1COc1cccc(Cl)c1 | 12.0 | 3.0
O=C(Cc1ccccc1)NC1CCSc2ccccc21 (configuration not stated) | -10.5 | -7.0
O=S1(=O)NC(=NCC(c2ccc(F)cc2)N2CCOCC2)c2ccccc21 (configuration not stated) | 8.5 | 14.0
CN(C)C(=O)Oc1ccc[n+](C)c1 | 4.0 | 23.5
COc1ccc(CCN(C)c2ccc(S(=O)(=O)N(C(C)C)C(C)C)cn2)cc1OC | 9.0 | 6.5
Cc1ccc(CN(C)C(=O)Cc2ccc3c(c2)OCCO3)o1 | 29.5 | 9.0
Cc1nn(C2CCS(=O)(=O)C2)c2nc(C3CC3)cc(C(=O)OCC#N)c12 (configuration not stated) | 6.5 | 0.5
Cc1occc1C(=O)Oc1ccc(C(=O)c2ccccc2)cc1 | 19.5 | 17.0
O=C(NCC1COc2ccccc2O1)C1CCCN(C(=O)c2ccc(Cl)cc2)C1 (configuration not stated) | 0.0 | -2.0
CC(C)c1nc(C#N)c(NCc2cccnc2)o1 | 31.0 | 16.5
CN(C)S(=O)(=O)c1cccc(C(=O)NCC(=O)NC2CCN(Cc3ccccc3)CC2)c1 | 15.0 | 6.5
CCOc1ccc(CN(C)C(C)C(=O)NCc2ccccc2)cc1 (configuration not stated) | 28.5 | 10.5
COc1ccc(C2=NN(C(=O)CSc3ccccc3)C(c3ccco3)C2)cc1 (configuration not stated) | 25.5 | 16.5
CC(C)NCC(O)c1ccc(O)c(O)c1 (configuration not stated) | -72.5 | -35.5
CSc1sc(=O)sc1SC | 8.5 | -4.5
COc1ccc(CCN(C)C(=O)CSc2nncs2)cc1OC | 5.0 | 1.5
COc1cccc(N2C(=O)CC(n3nc(Nc4cccc(C)c4)sc3=S)C2=O)c1 (configuration not stated) | 102.0* | 27.5*
C=CCN1C/C(=c2\sc3nc(-c4ccccc4OC(C)=O)nn3c2=O)c2ccccc21 | 5.0 | 6.5
Cc1ccc2nc(Cn3cnc4ccccc43)cc(=O)n2c1 | 4.5 | 3.0
Cn1ccnc1C(=O)c1ccc(Cl)c(S(=O)(=O)N2CCOCC2)c1 | 11.5 | 0.5
Cc1ccc(-n2c(SCC(=O)NC(C)(C#N)C(C)C)nnc2-c2ccccc2)cc1C (configuration not stated) | 13.5 | 15.0
O=C(c1ccc2ncsc2c1)N1CCN(c2ccccc2)CC1 | 18.5 | 2.5
CC(=O)NCCNCc1ccc(OCc2csc(C)n2)cc1 | 11.0 | -1.5
Cc1nnc(SC(C(=O)N2CCCC2)c2ccccc2)n1N (configuration not stated) | 15.5 | 12.5
CCOC(=O)c1sc2nc(CSc3nncn3-c3ccccc3)[nH]c(=O)c2c1C | 8.0 | -1.0
CC(Oc1ccccc1Cl)C(=O)N1CCCc2ccccc21 (configuration not stated) | 14.5 | 15.5
CCNC(=S)n1ncc(C(=O)OCC)c1N | 20.5 | 6.5
Cc1c(C(=O)N2CCc3ccccc32)sc2nc3n(c(=O)c12)CCC3 | 11.0 | 3.5
COc1ccc(C(=O)COC(=O)c2ccc(NC(C)=O)cc2)c(OC)c1 | 11.5 | 3.5
CC(=O)N1CCN(c2ccc(Oc3ccnc4cc(Cl)ccc34)cc2)CC1 | 14.5 | 7.5
S=c1sc2ccccc2n1CN1CCN(c2ccccn2)CC1 | 87.5 | 59.5
CN=C1SC(CC(=O)NCc2ccccc2)C(=O)N1/N=C/c1c(C)nn(Cc2ccccc2)c1C (configuration not stated) | 15.0 | 12.0
CCn1nnc2cc(C(=O)OCC(=O)Nc3cc(F)ccc3F)ccc21 | 3.5 | 4.0
CN1CCCN(C(=O)c2ccc3c(c2)OCO3)c2nc3ccccc3nc21 | 18.5 | 10.0
COC(=O)c1c(O)c(C=Nc2ccc(C)cc2)c(=O)n2c1CCC2 | 34.5 | 7.0
CCSc1nnc(NC(=O)CCc2nc3ccccc3s2)s1 | 12.5 | 10.5
O=C1OC(CC(=O)N2CCN(c3ccc(F)cc3)CC2)c2ccccc21 (configuration not stated) | 17.0 | 0.5
O=C1CCC(C(=O)OCc2nc3ccccc3s2)N1 (configuration not stated) | 5.0 | -12.5

Later entries:
SMILES | BmaI1 enzyme | BmaI1 enzyme counterscreen
O=C(COC(=O)CSc1ccc(Cl)cc1)Nc1ccc2[nH]c(=O)[nH]c2c1 | 30.5 | 7.5
Cc1ccc2c(COC(=O)c3ccc(S(=O)(=O)NCc4ccco4)cc3)cc(=O)oc2c1 | 17.5 | 0.5
COCC(C)n1c(SCc2nc3ccccc3c(=O)[nH]2)nc2ccccc2c1=O (configuration not stated) | 12.5 | 3.0
CCCCn1nc(C)c(C(=O)N2CCN(Cc3ccc(OC)c(F)c3)CC2)c1Cl | -5.0 | -7.0
N#CC(N)c1ccc(F)cc1 (configuration not stated) | 20.5 | 14.5
NC(=O)NC(=O)COc1ncnc2ccccc12 | 8.0 | 4.5
NC(=O)CSc1nnc(-c2c[nH]c3ccccc23)n1CC1CCCO1 (configuration not stated) | 17.5 | 4.0
O=C(NCCN1C(=O)S/C(=C\c2cccnc2)C1=O)c1cccs1 | 8.5 | 3.0
CC(NC(=O)Nc1ccccc1)C(=O)N1CCc2ccccc21 (configuration not stated) | 21.0 | 17.5
NC(=O)C1CC(O)CN1c1nc(-c2cccnc2)nc2ccccc12 (configuration not stated) | 9.5 | 14.5
CCCN(Cc1nnc(-c2ccccc2Cl)o1)C(=O)c1nc(-c2ccccc2)n(-c2ccccc2)n1 | 21.5 | 9.0
O=S(=O)(/N=C(\N=C1CCN(c2ccccc2)N1)c1ccccc1)c1ccccc1 | 59.5 | 3.5

Entries of single compounds, quoted from the list. Screens in order: BmaI1 enzyme	BmaI1 enzyme counterscreen
NC(=O)C1CC(O)CN1c1nc(-c2cccnc2)nc2ccccc12 (configuration not stated) in the list: 9.5	14.5
CCCCn1nc(C)c(C(=O)N2CCN(Cc3ccc(OC)c(F)c3)CC2)c1Cl in the list: -5.0	-7.0
O=C(COC(=O)CSc1ccc(Cl)cc1)Nc1ccc2[nH]c(=O)[nH]c2c1 in the list: 30.5	7.5
O=S(=O)(/N=C(\N=C1CCN(c2ccccc2)N1)c1ccccc1)c1ccccc1 in the list: 59.5	3.5
COCC(C)n1c(SCc2nc3ccccc3c(=O)[nH]2)nc2ccccc2c1=O (configuration not stated) in the list: 12.5	3.0

More records follow:
SMILES | BmaI1 enzyme | BmaI1 enzyme counterscreen
Cc1cc(C(=O)CSC2=N/C(=C\c3ccco3)C(=O)N2c2ccc(OC(F)F)cc2)c(C)n1CC1CCCO1 (configuration not stated) | 6.5 | 10.5
O=c1c2ccccc2c(/C=N/c2n[nH]c(CCCO)n2)c(O)n1-c1ccccc1Cl | 22.5 | 21.5
CC(=O)Nc1ccc(NC(=O)CC(NC(C)=O)c2ccccc2)cc1 (configuration not stated) | 8.5 | 5.5
CCc1ccc(NC(=O)/C(C#N)=C/c2ccc(-c3ccc(S(=O)(=O)N4CCOCC4)cc3)o2)cc1 | 20.0 | 21.0
CCOc1ccc(CN(C)CC(=O)NC2CC2)cc1OC | 5.5 | 9.5
O=C(CN1CCCC1c1ccc2c(c1)OCCCO2)Nc1ccc(S(=O)(=O)N2CCCCC2)cc1 (configuration not stated) | 5.0 | -4.0
Cc1ccc(C)c(NC(=O)CN(C)C(=O)COc2ccccc2C#N)c1 | 7.0 | 6.5
NC(=S)NN=C1C2CC3CC(C2)CC1C3 | -8.5 | -7.5
Cc1cc(=O)oc2cc(NC(=O)c3cccc(S(=O)(=O)N4CCCC4)c3)ccc12 | 3.5 | 4.0
CN(C1CCCCC1)S(=O)(=O)c1ccccc1NC(=O)COc1ccccc1C#N | 21.5 | 17.0
NC(=O)c1ccc(NC(=O)COC(=O)CCN2C(=O)c3ccccc3C2=O)cc1 | 8.0 | -1.5
CN(CC(=O)Nc1ccc(Cl)c(Cl)c1)CC(=O)N1CCNC1=O | 25.0 | 16.0
COc1cc2nc(CNCCCN3CCCC3=O)[nH]c(=O)c2cc1OC | 10.0 | 2.5
CCOC(=O)CC(N)=S | 47.5 | 4.5
CCOC(=O)C1=C(N2CCOCC2)CC(c2ccccc2)(C(F)(F)F)NC1=O (configuration not stated) | 8.0 | 11.5
COc1ccc(OC)c(NC(=O)/C=C/c2ccc(S(=O)(=O)N3CCOCC3)cc2)c1 | 17.0 | 12.0
O=C1CCCC/C1=C/Nc1nc(-c2ccccc2)cs1 | 20.0 | 12.5
N#Cc1ccc(NC(=O)[C@@H]2CCCN2C(=O)c2cccs2)cc1 | 0.0 | 1.0
CC(C)(C)c1ccc(S(=O)(=O)N2CCNC(=O)C2)cc1 | 3.5 | 0.0
CCN(CC1COc2ccccc2O1)C(=O)c1cccc(N(C)C)c1 (configuration not stated) | -4.0 | 1.5
C=CCN(C(=O)c1sc2nc(CSC)[nH]c(=O)c2c1C)c1nc2c(s1)CCCC2 | 11.0 | 13.0
Cc1noc(C)c1CSc1ncccc1C(=O)NC1CCCc2ccccc21 (configuration not stated) | 25.0 | 16.0
Cc1csc(SC(C)C(=O)N2CCCc3ccccc32)n1 (configuration not stated) | 17.0 | -8.0
CSc1ccccc1C(=O)OCC(=O)Nc1ccc2[nH]c(=O)[nH]c2c1 | 14.0 | 10.5
Cc1noc(NS(=O)(=O)c2ccc(N)cc2)c1C | -3.0 | 14.5
Oc1nc(-c2ccc(Br)cc2)n2ccncc12 | 83.5 | 64.5
CC(=O)[C@@]1(O)CC[C@H]2[C@@H]3C[C@H](C)C4=CC(=O)CC[C@]4(C)[C@H]3CC[C@@]21C | -6.0 | 4.0
CCN(CC)CCCOc1ccccc1-c1ccccc1 | 14.0 | 13.0
Cc1noc(C)c1CSc1ncccc1C(=O)NC1=NCCS1 | 13.0 | 17.5
O=C(OCc1nc2ccccc2c(=O)[nH]1)c1cccs1 | 5.0 | 13.0
COc1ccc(NC(=O)COC(=O)c2cc(=O)c3ccccc3o2)cc1 | 12.5 | 8.5
O=C(CNS(=O)(=O)c1ccc2c(c1)OCCO2)c1ccc(Cl)cc1 | -36.0 | -46.0
Cc1cc(CNCCCN2CCCCC2C)c(C)n1-c1ccnn1C(C)C (configuration not stated) | 0.5 | 4.0
Cc1cc(C)cc(C(=O)NCC(=O)OCN2C(=O)c3ccccc3C2=O)c1 | -4.5 | -9.5
Cc1nnc2n1-c1ccc(Cl)cc1C(c1ccccc1)=NC2 | 11.0 | 51.5
Nc1nc(N)nc(-c2cc(Cl)ccc2Cl)n1 | 9.0 | 11.0
CS(=O)(=O)c1ccc(NC(=O)CN2CSCC2=O)cc1 | 0.0 | -7.0
CCOC(=O)c1sc(N)c(C#N)c1COC(=O)[C@@H]1CCCN1C(=O)c1cccs1 | 18.5 | 12.0
O=C(CC1Sc2ccccc2NC1=O)OCc1cc(=O)oc2cc(O)ccc12 (configuration not stated) | 21.0 | 13.0
CCN1CCN(S(=O)(=O)c2ccc(Cl)c(C(=O)NCCc3ccc4c(c3)OCCO4)c2)CC1 | 12.0 | -1.5
CCN1CCCC1CNCC(=O)Nc1ccccc1C(=O)NCCc1ccc(OC)cc1 (configuration not stated) | 5.0 | 17.5

Taken from the listing (four entries):
SMILES | BmaI1 enzyme | BmaI1 enzyme counterscreen
Cc1nnc2n1-c1ccc(Cl)cc1C(c1ccccc1)=NC2 | 11.0 | 51.5
Nc1nc(N)nc(-c2cc(Cl)ccc2Cl)n1 | 9.0 | 11.0
CS(=O)(=O)c1ccc(NC(=O)CN2CSCC2=O)cc1 | 0.0 | -7.0
CCOC(=O)c1sc(N)c(C#N)c1COC(=O)[C@@H]1CCCN1C(=O)c1cccs1 | 18.5 | 12.0
